Bioassay records (PubChem)
VDR inh: Inhibitors of the vitamin D receptor (VDR): qHTS | 400,000 tested, 0.93% active | Potency, µM, without a hit: max response, negative = inhibition, most hits filed as inhibitors | Vitamin D3 receptor (Homo sapiens), P11473 | VDR-SRC2-3 peptide fluorescence polarization, 2 h; active = well fitted inhibition curve with a large enough effect; inconclusive = small, poorly fitted or top-dose-only effect, or another doubt; inactive = no such curve, though single readings can be large or run the other way; note: series mostly up to about 120 µM
Target sequence (P11473 whole entry, looked up): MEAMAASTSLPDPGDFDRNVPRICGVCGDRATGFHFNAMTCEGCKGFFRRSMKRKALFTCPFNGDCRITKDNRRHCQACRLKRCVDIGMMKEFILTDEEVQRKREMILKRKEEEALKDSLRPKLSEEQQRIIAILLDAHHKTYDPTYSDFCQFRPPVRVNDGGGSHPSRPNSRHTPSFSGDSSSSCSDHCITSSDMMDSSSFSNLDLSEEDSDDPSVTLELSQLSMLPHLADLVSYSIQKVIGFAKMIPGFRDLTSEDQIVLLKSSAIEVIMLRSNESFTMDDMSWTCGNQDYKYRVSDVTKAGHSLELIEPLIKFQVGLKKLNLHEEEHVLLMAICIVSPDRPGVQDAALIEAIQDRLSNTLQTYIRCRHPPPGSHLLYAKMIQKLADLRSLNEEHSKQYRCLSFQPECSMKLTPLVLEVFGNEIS
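VDR–SRC2-3 interaction, FP format. Cmpds 23 nl via pintool, brief spin, 2 h ambient incubation.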
The depositor's hits bear a star; ? = inconclusive; & = joins results of further samples; [ ] = dose if it differs, or a comment. % is set by controls: 0 for no effect and ±100 for the full control effect; potency is the fitted concentration of half-maximal effect. These rows are one share of the data. The share of hits here may be higher or lower than overall.

SMILES	VDR inh
Cc1nc(SCc2ccc(C(=O)O)cc2)c2c(C)c(C)sc2n1	-13%
Cc1nc(CS(=O)(=O)c2ccc(Cl)cc2)cc(N2CCOCC2)n1	16%
Cc1ccc(C)c(N2CCN(S(=O)(=O)c3ccc4c(c3)CCN4C(=O)CCC(=O)O)CC2)c1	9%
COc1ccc(CC(=O)Nc2ccc(S(=O)(=O)Nc3nccs3)cc2)cc1	-7%
Cc1cccc2cc(CN(C(=O)c3cnccn3)C3CCCCC3)c(Cl)nc12	-1%
COc1cccc(CN(C(=O)c2oc3ccccc3c2C)C2CCS(=O)(=O)C2)c1 (stereo unspecified)	12%
O=C(Nc1ccc2c(c1)OCCO2)c1ccc(Br)cc1	-11%
CCc1ccc(C(O)(CC(C)C)C(CN2CCOCC2)c2ccccc2)cc1 (stereo unspecified)	-7%
O=C1N/C(=N\N=C\c2ccccn2)SC1Cc1cccc(SC(F)F)c1 (stereo unspecified)	18%
CCOc1ccc(NC(=O)CSC2=Nc3ccccc3C3=NC(CCC(=O)NCc4ccco4)C(=O)N23)cc1 (stereo unspecified)	4%

The results go on.
SMILES	VDR inh
O=S(=O)(c1ccc(Cl)cc1)c1ccccn1	32%
CC(C)(C)OC(=O)CNC(=O)c1[nH]cnc1C(=O)NC1CCN(C(=O)OC(C)(C)C)CC1	?
COc1cc(S(=O)(=O)N2CCN(C(=O)c3ccccc3F)CC2)c(OC)cc1NC(C)=O	-19%
COc1ccccc1N1CCN(Cc2ccc(OC)c3ccccc23)CC1	-26%
Cc1ccc2[nH]c(O)c(N=O)c2c1	8%
CS(=O)(=O)c1ccc(Cl)c(NC(=O)CSc2nnc(C3CC3)n2C2CC2)c1	6%
O=C(CSc1n[nH]c(-c2ccco2)n1)N1c2ccccc2Sc2ccccc21	-7%
COc1ccccc1NC(=O)Cn1c2ccccc2c2nc3n(c(=O)c21)CCS3	-10%
COc1cc(Cl)c(NS(=O)(=O)c2ccc(-c3ccc(=O)[nH]n3)o2)c(OC)c1	5%
CN(C(=O)COC(=O)C1CCN(S(=O)(=O)c2c(Cl)cccc2Cl)CC1)C1CCCCC1	3%

(list continues)
SMILES	VDR inh
CCN(CC)S(=O)(=O)c1ccc2c(c1)N(CC(=O)NCC1CCCO1)C(=O)CO2 (stereo unspecified)	-3%
COc1ccccc1CNc1ccc(-c2nc(C)no2)cc1[N+](=O)[O-]	12%
CC(=O)c1ccc(NC(=O)C2CCCN(C(=O)c3ccc(Cl)cc3)C2)cc1 (stereo unspecified)	16%
C=CC(=C)CC(NC)c1ccccc1 (stereo unspecified)	4%
COc1ccc(-n2cc(-c3ccccc3)c3c(SC(C)C(C)=O)ncnc32)cc1 (stereo unspecified)	-15%
Cc1ccc(NC(=O)c2sc3ncnc(N(C)C4CCCCC4)c3c2C)cc1	21%
Cn1c(=O)c2c(SCC(=O)NCCc3ccccc3)nc(C3CC3)nc2n(C)c1=O	-6%
COC(=O)c1ccccc1NC(=O)CN1CCC(C(=O)c2ccc3c(c2)OCCO3)CC1	-12%
CC(=O)O[C@]1(C(C)=O)CCC2C3CCC4=C/C(=N/OCC(=O)O)CC[C@]4(C)C3CC[C@@]21C (stereo partly specified)	-3%
Cc1ccc(Cl)cc1N1CCN(C(=O)c2cc(S(=O)(=O)N3CCCCC3)cn2C)CC1	3%

Remaining list, next part:
SMILES	VDR inh
C=CCN1CCN(C(=O)CCc2ccccc2)CC1	2%
Clc1ccc(CN2CCc3nc(Nc4ccc5c(c4)OCCO5)ncc3C2)cc1	16%
Cc1nnsc1SCC(=O)O	-15%
Cc1ccc(-n2c(CC#N)n[nH]c2=S)c(C)c1	7%
Cc1noc(C)c1S(=O)(=O)NCCc1csc2nc(-c3ccc(Cl)cc3)nn12	9%
C=CCN(C/C(=N\O)c1sc(C(=O)OCC)nc1C)c1cccc(Br)c1	-13%
C=CCN(C(=O)CNC(=O)c1ccco1)C(C(=O)NC1CCCC1)c1cccs1 (stereo unspecified)	5%
CCOC(=O)c1nc(S(C)(=O)=O)ncc1N1CCOCC1	2%
COc1ccc(NC(=O)CSc2nccn2-c2cccc(OC)c2)cc1	2%
O=C(COC(=O)c1ccc(=O)n(Cc2ccccc2)n1)Nc1ccc2c(c1)OCCO2	33%

New compounds follow.
SMILES	VDR inh
CN(C)C(=O)c1ccc(-c2ccc3ncnc(NCc4cccs4)c3c2)cc1	49%[activator]
Cc1ccc(CNC(=O)C(=O)NCC2CCCN2S(=O)(=O)c2cc(C)ccc2C)cc1 (stereo unspecified)	7%
CC(C)C(NC(=O)c1ccco1)C(=O)OCC(=O)NCCc1ccccc1 (stereo unspecified)	1%
CN(CCC#N)C(=O)COC(=O)c1c2c(nc3ccccc13)/C(=C\c1ccco1)CC2	14%
CN(C)CCCOc1cccc(Oc2ccccc2)c1	-15%
CCCc1nc2ccccc2c(=O)n1CC(=O)c1ccc(F)cc1	-14%
O=C(c1ccco1)N(Cc1ccccc1)c1cccc([N+](=O)[O-])c1	16%
COC(=O)c1sc2ncccc2c1OCc1ccccc1Cl	4%
CCOC(=O)c1c(S(=O)(=O)NCC(=O)NCc2cccc(C)c2)c(C)n(C)c1C	6%&12%
O=C(Cc1cccs1)NNC(=S)NCc1ccco1	-4%

Additional entries
SMILES	VDR inh
CSc1cccc(NC(=O)C2CCCN(S(=O)(=O)c3ccc4c(c3)CCCN4C(C)=O)C2)c1 (stereo unspecified)	6%
O=c1c2c(nc3cc(-c4ccccc4)[nH]n13)CCS2	18%
Cn1nc(C(=O)Nc2ccccc2N2CCOCC2)ccc1=O	-1%
COC(=O)c1ccc2c(=O)n(CCCCCC(=O)NC(C)C)c(=O)[nH]c2c1	-7%&20%
Cc1cccc2sc(NNC(=O)c3cc(-c4cccs4)nc4ccccc34)nc12	-17%
FC(F)(F)c1ccccc1/C=N/n1c(COc2ccccc2)n[nH]c1=S	-14%
Nc1n[nH]c(N)c1N=Nc1ccc(Cl)cc1Cl	4%
CCOc1ccccc1N=C1SCC(C)N1C(=O)C1CCN(c2ncnc3sc(C)c(C)c23)CC1 (stereo unspecified)	-26%
CCC(=O)N(CC)c1nc(-c2ccc(OC)cc2)cs1	-10%
COc1ccc([N+](=O)[O-])cc1NC(=O)C(C)Sc1ccccc1 (stereo unspecified)	-12%

3 entries already listed, ordered by the value under VDR inh, descending.
SMILES	VDR inh
CCC(=O)N(CC)c1nc(-c2ccc(OC)cc2)cs1	-10%
COc1ccc([N+](=O)[O-])cc1NC(=O)C(C)Sc1ccccc1 (stereo unspecified)	-12%
CCOc1ccccc1N=C1SCC(C)N1C(=O)C1CCN(c2ncnc3sc(C)c(C)c23)CC1 (stereo unspecified)	-26%

The list goes on:
SMILES	VDR inh
CCCOc1ccccc1C(=O)N1CCCCC1CCN1CCCCC1 (stereo unspecified)	1%
COc1ccc(C=O)c2[nH]c3c(Cl)ncnc3c12	-20%
O=C(NC1CCCC1)C(c1ccc(O)cc1)N(CC1CCCO1)C(=O)C1COc2ccccc2O1 (stereo unspecified)	-3%
CC(NC(=O)c1ccc(Cn2c(=O)c3cccn3c3cccnc32)cc1)c1ccccc1 (stereo unspecified)	10%
CC(=O)c1ccc(NC(=O)CC(C)S(=O)(=O)c2ccc3c(c2)CCN3C(C)=O)cc1 (stereo unspecified)	-16%
CNC(=O)c1ccc(S(=O)(=O)c2ccc(Cl)cc2)c(NC(C)=O)c1	6%
Cc1ccc(NC2CCCN(C(=O)CCc3ccncc3)C2)cc1C (stereo unspecified)	6%
Cc1ccc(S(=O)(=O)Nc2cc(C)on2)cc1	9%
O=C(c1ccccc1)c1ccc2c(c1)OCCOCCOCCOCCO2	-7%
COc1cccc(-c2nc(S(=O)(=O)c3ccc(Cl)cc3)c(NCc3ccccc3)o2)c1	2%

(further entries)
SMILES	VDR inh
Cc1ccc2oc(=O)n(CCOc3ccccc3Cl)c2c1	-10%
Cc1nn2c(=O)cc(COC(=O)c3ccco3)nc2s1	4%
COc1ccc(OCCCc2c(C)n[nH]c2C)cc1	5%
N#Cc1c(Nc2ccccc2)c(/C=N/N=C/c2ccccc2)c[nH]c1=O	7%
N=c1sccn1CC(=O)Nc1cc(S(=O)(=O)N2CCCCC2)ccc1Cl	-9%
COc1ccc(S(=O)(=O)N2CCCC2C(=O)Nn2cnnc2)cc1 (stereo unspecified)	14%
COCCNC(=O)c1ccc(N2CCCCC2)c(NS(=O)(=O)c2ccc(C)cc2)c1	3%
COc1ccc(CN(C)C(C)C(=O)Nc2ccc([N+](=O)[O-])cc2Cl)cc1OC (stereo unspecified)	-9%
CCOC(=O)c1nc(C)sc1-c1ccnn1S(=O)(=O)c1ccccc1C(F)(F)F	3%
CCC(=O)NC(=S)Nc1ccc(NC(=O)c2ccc(Br)o2)cc1	-12%

In another format: four of the compounds above.
Compound: N=c1sccn1CC(=O)Nc1cc(S(=O)(=O)N2CCCCC2)ccc1Cl
  VDR inh = -9%

Compound: COc1ccc(S(=O)(=O)N2CCCC2C(=O)Nn2cnnc2)cc1 (stereo unspecified)
  VDR inh = 14%

Compound: COCCNC(=O)c1ccc(N2CCCCC2)c(NS(=O)(=O)c2ccc(C)cc2)c1
  VDR inh = 3%

Compound: COc1ccc(CN(C)C(C)C(=O)Nc2ccc([N+](=O)[O-])cc2Cl)cc1OC (stereo unspecified)
  VDR inh = -9%

Carrying on:
SMILES	VDR inh
NNc1ccc(Cc2ccc(Cl)cc2Cl)nn1	-6%
CC(Oc1ccccc1)C(=O)Nc1nnc2n1CCS2 (stereo unspecified)	3%
COc1ccc(-c2cc(=O)n(-c3ccc([N+](=O)[O-])cc3)[nH]2)cc1	?
COC(=O)Cc1c(C)nc2nc(NCc3c(F)cccc3Cl)[nH]n2c1=O	11%
O=C(NC1CCN(Cc2ccccc2)CC1)C1CCN(S(=O)(=O)c2cccc3nsnc23)CC1	-8%
Nc1c(Cl)ncnc1NCCc1ccc(O)cc1	4%
COc1cc(/C=C(\C#N)c2nc3ccccc3[nH]2)cc(Br)c1OCc1ccccc1	-16%
N#CC(Cc1ccccc1OC(F)F)c1nc2ccccc2[nH]1 (stereo unspecified)	-7%
Cc1c(Cl)cccc1NC(=O)C1CC(=O)N(C2CCCC2)C1 (stereo unspecified)	-21%
Cc1ccc(-c2cc(C#N)c(=O)n(Cc3c(Cl)cccc3Cl)c2)cc1	-4%

Four entries from above, field by field.
> O=C(NC1CCN(Cc2ccccc2)CC1)C1CCN(S(=O)(=O)c2cccc3nsnc23)CC1
  VDR inh: -8%
> COC(=O)Cc1c(C)nc2nc(NCc3c(F)cccc3Cl)[nH]n2c1=O
  VDR inh: 11%
> Cc1ccc(-c2cc(C#N)c(=O)n(Cc3c(Cl)cccc3Cl)c2)cc1
  VDR inh: -4%
> Nc1c(Cl)ncnc1NCCc1ccc(O)cc1
  VDR inh: 4%

Continued.
SMILES	VDR inh
Cc1cccc(C(=O)O/N=C(\N)Cc2ccc([N+](=O)[O-])cc2)c1	5%
CC1CCC2(CC1)NC(=O)N(CC(=O)NC1CCCCC1C)C2=O (stereo unspecified)	-6%
COc1cc(C(=O)Nc2nc(OC)c(-c3ccccc3)c(OC)n2)cc(OC)c1OC	7%
COc1ccc(C)c(-n2c(N)cc(=O)n(Cc3ccccc3)c2=O)c1	-25%
O=C(NCc1ccco1)C1CCCCN1S(=O)(=O)c1ccc(F)cc1 (stereo unspecified)	-1%
CC1=CC(=O)C=CC1(C)C(Cl)Cl (stereo unspecified)	2%
CCCN(C(=O)c1cn(C)c(=O)c2ccccc12)c1ccccc1C	-4%&-2%
N#Cc1ccc(OCC(=O)Nc2cc(S(=O)(=O)N3CCOCC3)ccc2N2CCCC2)cc1	5%
Cc1ccccc1Cn1c(CN2CCC(C(=O)NCc3cccnc3)CC2)cc2ccccc21	10%
Cc1ccc(C(=O)/C=C/Nc2ccccc2C(N)=O)o1	3%

Next records follow.
SMILES	VDR inh
C[C@@H](O)C1NC(=O)[C@H](CCCCN)NC(=O)c2cc([N+](=O)[O-])cc(I)c2NCCC[C@@H](C(N)=O)NC1=O (stereo partly specified)	4%
O=C(COC(=O)C12CC3CC(CC(O)(C3)C1)C2)Nc1ccc(Cl)cc1F	-12%
C=CCn1c(SCC(=O)Nc2cc(C)on2)nc2sc(C)c(C)c2c1=O	6%
O=C(NCc1ccco1)c1c[nH]c2ccc(S(=O)(=O)N3CCOCC3)cc2c1=O	-25%
NC(=O)c1c(NC(=O)c2ccccc2F)sc2c1CCCC2	7%
Cc1cc2c(c(Sc3ccccc3)n1)C(=O)OC2	2%
CS(=O)(=O)N(Cc1ccc(Cl)cc1)c1ccc(C(=O)N/N=C/c2cc3ccccc3nc2Cl)cc1	3%
O=C(Nc1csc([N+](=O)[O-])c1)Nc1c(Cl)cccc1Cl	-11%
CCOC(=O)c1ccc(NC(=O)N2CCCCCC2)cc1	-11%
COc1ccc(OCC(O)Cn2c(Nc3ccccc3)nc3c2c(=O)n(C)c(=O)n3C)cc1 (stereo unspecified)	-2%

Other records.
SMILES	VDR inh
CCOC(=O)CSc1ccc2nnc(CCNS(=O)(=O)c3ccccc3)n2n1	10%&13%
CSc1nnc(NC(=O)CCc2ccccc2)s1	9%
CS(=O)(=O)N1CCN(c2ccc([N+](=O)[O-])c(N3CCOCC3)c2)CC1	-9%
CCS(=O)(=O)c1nc(S(=O)(=O)c2ccc(C)cc2)c(N2CCN(C)CC2)s1	?
